VDR inhibitor – blocks the human vitamin D receptor; VDR-SRC2-3 peptide fluorescence polarization, 2 h; Potency, µM, for inactives: max response, negative = inhibition, usual class: inhibitors; 400,000 tested, 0.93% active; P11473; AID 504847; active means well fitted inhibition curve with a large enough effect; inconclusive means small, poorly fitted or top-dose-only effect, or another doubt; inactive means no such curve, though single readings can be large or run the other way; further: series mostly up to about 120 µM
Target sequence (P11473 whole entry, looked up): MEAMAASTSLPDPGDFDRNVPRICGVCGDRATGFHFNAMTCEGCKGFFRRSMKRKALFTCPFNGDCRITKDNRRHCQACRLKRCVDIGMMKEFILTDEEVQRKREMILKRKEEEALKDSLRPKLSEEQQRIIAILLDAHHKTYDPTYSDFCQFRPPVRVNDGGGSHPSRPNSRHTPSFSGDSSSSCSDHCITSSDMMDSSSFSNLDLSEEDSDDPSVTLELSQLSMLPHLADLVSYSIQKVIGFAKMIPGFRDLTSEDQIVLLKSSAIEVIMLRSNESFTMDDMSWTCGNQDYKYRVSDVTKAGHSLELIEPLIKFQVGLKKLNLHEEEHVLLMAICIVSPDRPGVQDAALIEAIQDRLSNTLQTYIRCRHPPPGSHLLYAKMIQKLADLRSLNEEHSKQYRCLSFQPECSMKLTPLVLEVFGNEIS
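Reagent solutions, kept cold and dark, are dispensed first; compounds are then pinned in at 23 nl, plates briefly spun, and incubated 2 h at ambient temperature. Inhibition of VDR–SRC2-3 peptide binding is read by fluorescence polarization.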
Starred values were filed as active, the others as inactive; ? = inconclusive; & = joins results of further samples; [ ] = another dose, or the depositor's remark. On the % scale 0 is the no-effect control and ±100 the full control effect; potency means the concentration at half of the fitted maximal effect. Only part of the results is shown; rates above refer to the full screens.

SMILES	VDR inhibitor
CCOC(=O)c1[nH]c(C)c(/C(O)=C2\C(=O)C(=O)N(CCCN(CC)CC)C2c2cccnc2)c1C (centres undefined)	-4.6%
Cc1ccccc1OCCC(=O)Nc1ccccc1C(=O)NC1CC1	8.0%
CC(=O)c1cccc(N(C(=O)c2ccco2)C(C(=O)NC2CCCCC2)c2ccc(C)o2)c1 (centres undefined)	-12.3%
Cc1ccc2oc(-c3cc(NC(=O)c4ncn[nH]4)ccc3O)nc2c1	-5.4%
COc1ccc(N=C2C(=Nc3ccc(OC)cc3)N(c3ccc(OC)cc3)C(=S)N2c2ccccc2)cc1	0.9%
COCCNC(=O)COC(=O)c1ccc(S(=O)(=O)N2CCOCC2)cc1	-1.0%
COc1ccc(Br)cc1CNC(=O)C(C)n1nc(C)n2c(cc3occc32)c1=O (centres undefined)	0.6%
CCCOc1cccc(-c2nc3ccccc3c(=O)o2)c1	-7.6%
Cc1cc(N2CCN(c3ccc(F)cc3)CC2)n2cnnc2n1	3.9%
Cc1cc2nc(CCN(Cc3cccnc3)C(=S)Nc3ccccc3)[nH]c2cc1C	-8.9%
COc1ccc(CNC(=O)c2cccc(-n3cnc4cccnc43)c2C)cc1	-6.2%
COc1ccc(S(=O)(=O)N2CCCCC2)cc1NC(=S)Nc1ccccc1	-6.4%
CSc1ccc(CCNC(=O)c2csc3c2CCCCC3)cc1	-1.9%
Cc1ccc(NC(=O)COc2ncnc3ccccc23)cc1S(=O)(=O)N1CCOCC1	18.8%
CN(c1ccccc1)S(=O)(=O)c1cccc(C(=O)Nc2ncn[nH]2)c1	-1.8%
O=C(CSc1nnc(-c2ccccc2)n1Cc1ccccc1)NNC(=O)c1ccccc1O	2.7%
COc1cccc(C(=O)OCC(=O)Nc2ccc(N3CCOCC3)cc2)c1	-15.9%
Cc1onc(-c2ccccc2Cl)c1C(=O)N[C@@H](C)c1ccccc1	-12.8%
CC1CC(C)CN(C/C=C/c2ccccc2[N+](=O)[O-])C1 (centres undefined)	10.8%
O=C(COc1ccc(-c2ccccc2)cc1)N1CCN(S(=O)(=O)Cc2ccccc2)CC1	-16.9%
CCOC(=O)c1csc(NC(=O)CN2CCN(C)CC2)n1	-12.5%
Cc1ccc2nc(C(F)(F)F)c(C#N)c(N)c2c1	8.6%
CN(CCCC(=O)NCc1ccc2c(c1)OCO2)S(=O)(=O)c1ccc([N+](=O)[O-])cc1	-6.2%
CCOC(=O)/C=C/c1ccc2c(c1)S(=O)(=O)N(c1cccc(OC)c1)[C@H]2CC(=O)OCC	-10.5%
Cn1c(NC(=O)c2ccccc2F)c(-c2cccs2)c(=O)c2ccccc21	9.7%
COc1ccc(-c2nc(CS(=O)CC(=O)NCc3ccc(C)cc3)c(C)o2)cc1OC (centres undefined)	-8.3%
Cc1ccc(S(=O)(=O)Nc2nc(C)c(C(=O)NN)s2)cc1	-10.0%
N#Cc1ccccc1OCC(=O)Nc1ccccc1C(=O)NC1CC1	1.7%
O=C(COC(=O)c1cc2ccccc2cc1O)c1ccccc1	12.5%
O=C(Nc1ccccc1)c1ccc(CSc2ccccn2)cc1	-6.2%

Filtered by structure: the entries above with fluorine
SMILES	VDR inhibitor
Cc1cc(N2CCN(c3ccc(F)cc3)CC2)n2cnnc2n1	3.9%
Cc1ccc2nc(C(F)(F)F)c(C#N)c(N)c2c1	8.6%
Cn1c(NC(=O)c2ccccc2F)c(-c2cccs2)c(=O)c2ccccc21	9.7%

Next section
SMILES	VDR inhibitor
CCN(CC(=O)Nc1ccc2c(c1)OCCO2)C(=O)/C=C/c1cccc(OC)c1OC	0.0%
COC(=O)c1c(NC(=O)COC(=O)c2ccccc2O)sc2c1CCCCC2	-1.0%
Fc1ccc(CNC(=S)NC2CCCCC2)cc1	6.4%
O=C(CONS(=O)(=O)c1ccc(Cl)cc1)NCCNc1ncc(C(F)(F)F)cc1Cl	-6.8%
CCOc1cc(NC(=S)NCC2CCCO2)c(OCC)cc1NC(=O)c1ccccc1 (centres undefined)	1.9%
O=C(C1=C[C@@H](C2CCCCC2)C[C@@H](OCc2ccc(CO)cc2)O1)N1CCOCC1	-3.1%
CC1=NN(c2cc(Cl)c(S(=O)(=O)O)cc2Cl)C(=O)C1	-18.7%
COc1cccc(C2Nc3ccccc3NC3=C2C(=O)CC(C)(C)C3)c1OC (centres undefined)	-7.8%
O=C1CSc2ccc(S(=O)(=O)NCc3ccccc3)cc2N1	-1.9%
CCn1cc(C(=O)Nc2ccc3c(c2)OCCO3)c2cc(OC)c(OC)cc2c1=O	10.4%
CC1Cc2ccccc2N1C(=S)Nc1cccc(S(=O)(=O)N(C)C)c1 (centres undefined)	-2.2%
Nc1c(C(=O)c2ccccc2)sc2nsc(SCCN3CCOCC3)c12	14.2%
CCCCCN(C(=O)CSc1n[nH]c(-c2ccc(C)cc2)n1)c1c(N)n(CCCC)c(=O)[nH]c1=O	-7.2%
CCC(=O)N1CN(S(=O)(=O)c2ccc(C)cc2)CC1C (centres undefined)	-9.2%
Cc1ccc(N(CC(=O)NCC2CCCO2)S(=O)(=O)c2ccc(Cl)cc2)cc1C (centres undefined)	17.9%
CCOP(=O)(OCC)C(NC(=O)c1cccs1)c1ccccc1 (centres undefined)	0.4%
COc1ccc(Br)cc1CN1CCCC(C(=O)N2CCCCC2)C1 (centres undefined)	-15.1%
COc1cc(C)c(NC(=O)c2cccc(S(=O)(=O)N3CCCC3)c2)cc1OC	-1.2%
O=C(N/N=C/c1ccc([N+](=O)[O-])cc1)c1cccc(N2CCCC2=O)c1	-5.0%
Cc1cc(C)c(NC(=O)COC(=O)C2=COCCO2)c(Cl)c1	-0.7%
Cc1cc(NC(=S)N(CCCN2CCOCC2)Cc2ccco2)ccc1Cl	2.2%
CS(=O)(=O)c1ccc(Cl)c(NC(=O)c2cc(S(=O)(=O)N3CCOCC3)ccc2N2CCCC2)c1	-22.6%
CCC1(c2ccc(C)cc2)NC(=O)N(C(C)C(=O)Nc2ccc(N3CCOCC3)cc2)C1=O (centres undefined)	3.8%
Cn1nc(C(=O)NCCc2ccc(S(N)(=O)=O)cc2)c2c1-c1ccccc1S(=O)(=O)C2	-7.3%
Cc1ccc(Cn2c(NC(=O)c3ccco3)nc3ccccc32)cc1	0.4%
COCCn1c(SCc2cccnc2)nnc1-c1c[nH]c2ccccc12	-16.4%
Cc1ccc(CN(CC(=O)N/N=C/c2ccco2)S(=O)(=O)c2ccc(C)cc2)cc1	11.1%
COc1ccc(CN(C)C(=O)c2ccc(NS(=O)(=O)c3ccc(C)c([N+](=O)[O-])c3)cc2)c(OC)c1OC	-5.6%
COc1ccc(-c2nc3cc(C(C)C)ccc3o2)cc1NC(=O)COc1ccc(C)cc1C	3.0%
COc1ccc(C(=O)c2coc3ccc(O)c(CN(C)C)c23)cc1	-12.8%
COc1ccc(S(=O)(=O)N(C)C)cc1NC(=O)COC(=O)C1CC1	11.3%
COc1ccc(C(=O)Nc2c(C)csc2C(=O)O)cc1	-1.8%
O=C(COc1ccc(F)cc1)Nc1ccc2nc(SCC(=O)N3CCc4ccccc43)sc2c1	5.9%
Cc1nc2cc(F)ccc2n1C1CCN(S(=O)(=O)c2ccccc2)CC1	-3.5%
Cc1ccc(C)c(NC(=O)C2CC3CCC2C3)c1 (centres undefined)	-12.3%
CC1CCCN(C(=O)CSc2cnc3ccccc3n2)C1 (centres undefined)	11.1%
CSc1ccccc1NC(=O)C1=CC(c2cccs2)=NS(=O)(=O)N1C	-5.5%
COc1cccc(C(=O)C2CCCN(C(=O)c3cccc(C#CC(C)(C)O)c3)C2)c1 (centres undefined)	0.8%
COc1cc(/C=C2/SC(=S)N(CC(=O)Nc3nc4ccccc4s3)C2=O)cc(OC)c1OC	-3.5%
O=C(NCC1CCCO1)C1CC(=O)N(C2CCCC2)C1 (centres undefined)	10.7%
Cc1ccc(NC(=O)CCc2c(C)nn(-c3ccc(N4CCCCC4)nn3)c2C)cc1C	-4.8%
C[C@H](CO)N1C[C@H](C)[C@@H](CN(C)Cc2ccc(Oc3ccccc3)cc2)Oc2c(NS(=O)(=O)c3cn(C)cn3)cccc2C1=O	-1.8%
COc1cc(C(=O)OC2CCCCC2=O)cc(OC)c1C (centres undefined)	-15.5%
Cc1ccc(CCNC(=O)C2CCCN2S(=O)(=O)c2ccc3c(c2)CCC(=O)N3)cc1 (centres undefined)	-5.9%
Cc1nn(-c2ccccc2)c(C)c1NC(=O)COC(=O)CCOc1ccccc1	-0.4%
CCCCNS(=O)(=O)c1ccc(NS(=O)(=O)c2c(C)cc(C)cc2C)cc1	2.7%
FC(F)(F)c1cc(-c2ccco2)nc2ncnn12	-2.7%
CCC1(c2ccccc2)NC(=O)N(CC(=O)NC2CCCCCC2)C1=O (centres undefined)	-22.0%
COc1ccc(-c2cc(-c3n[nH]c(=S)n3-c3cc(OC)ccc3OC)[nH]n2)cc1	-19.9%
Cc1ccn2c(Nc3ccccc3)c(-c3ccccn3)nc2c1	15.9%
CSc1nc2ccc(NC(=O)c3ccco3)cc2s1	-15.8%
Cc1ccc(C(=O)c2cn[nH]c2-c2ccccc2O)cc1	0.5%
C=CCNC(=O)c1onc(CSc2ccc(F)c(F)c2)c1C(=O)NCC=C	0.5%
Cc1ccc(OCC(=O)OCC(=O)c2c(N)n(C)c(=O)n(C)c2=O)cc1C	10.6%
Cc1c(NC(=O)C(C)OC(=O)CCc2c[nH]c3ccccc23)c(=O)n(-c2ccccc2)n1C (centres undefined)	-8.4%
O=C(NCCCn1ccnc1)C(=O)NCC1OCCN1S(=O)(=O)c1ccccc1 (centres undefined)	-4.0%
CN(Cc1ccccc1)C(=O)c1ccc(NC(=O)C2=CSCCO2)cc1	12.3%
CCCOC(=O)c1[nH]c2c(c1C)C(=O)CC(c1cc(OC)c(OC)c(OC)c1)C2 (centres undefined)	-17.5%
CCCC(=O)Nc1ccc(NC(=O)c2cc3ccccc3o2)c(OC)c1	-7.4%
CCOC(=O)c1c(C)[nH]c(N=Nc2ccccc2Cl)c1C	-12.8%
Further entries follow:
SMILES	VDR inhibitor
CC1=CC2C(C(O)CC3(C)C2CC(C)C32OCOC23COCO3)C2(C)C/C(=C\O)C(=O)C=C12 (centres undefined)	?
O=C(O)CCCSCC(=O)Nc1ccccc1	-2.0%
NC(=S)NNC(=O)c1cc(C(F)(F)F)cc(C(F)(F)F)c1	4.9%
CC(=O)CCc1c[nH]c2c(C(=O)O)cccc12	-12.2%
COCCCNC(=O)c1ccc2c(c1)ncn2-c1ccc(C)cc1C	-6.0%
O=C(CN1C(=O)c2ccccc2S1(=O)=O)c1ccc(F)cc1	-9.0%
CS(=O)(=O)c1ccc(Cl)c(C(=O)Nc2ccc3nc(N4CCOCC4)sc3c2)c1	-20.4%
O=C(Cn1cc(S(=O)(=O)Cc2cccc(Cl)c2)c2ccccc21)Nc1ccc(F)c(Cl)c1	17.7%
CCN(CC)C(=O)C1CCCN(Cc2sccc2C)C1 (centres undefined)	-2.0%
O=C(O)[C@@H](O)[C@@H](O)[C@@H](O[C@H]1O[C@@H](CO)[C@@H](O)[C@@H](O)[C@@H]1O)[C@@H](O)CO	1.5%
COc1cc(=O)[nH]c(SC(C)C(=O)Nc2nc3c(s2)CCCC3)n1 (centres undefined)	-5.3%
Nc1ccccc1NC1CCCCC1	-4.3%
Cc1ccc(S(=O)(=O)N2CCN(c3nc(-c4cccnc4)nc4ccccc34)CC2)cc1	-9.0%
CC1=C(C(=O)Nc2ccccc2F)C(c2cccs2)C2=C(CCCC2=O)N1 (centres undefined)	?
CCOc1ccc(-c2c(C#N)c(N)nc3c2c(=O)n(C)c(=O)n3C)cc1OC	6.4%
Cc1cc2cc(C=O)c(Cl)nc2cc1C	-4.4%
O=C(COc1ccc(Br)cc1)N/N=C1/SCC(=O)N1Cc1ccccc1	-17.6%
Nc1ncccc1OCc1ccc(Cl)c(Cl)c1	5.2%
CN(C(=O)CSc1nnnn1-c1ccc(O)cc1)C1CCS(=O)(=O)C1 (centres undefined)	-3.7%
CCOC(=O)N1CCC(Nc2c(NCCN3CCN(c4ccccc4F)CC3)c(=O)c2=O)CC1	-6.4%&-16.0%
Cc1ccc(O)c(NC(=O)CSc2ccc(Cl)cc2)c1	31.8%[activator]
CCc1cccc(C)c1NC(=O)COn1nnc2ccc(C(F)(F)F)cc21	-4.2%
CCc1ccc(NC(=O)CCc2c(C)nn(-c3ccc(N4CCCCC4)nn3)c2C)cc1	-0.9%
CCOC(=O)CCC(=O)Nc1ccc(S(=O)(=O)N2CCCC2)cc1	-10.8%
COc1ccccc1NC(=O)NCCCN1CCN(c2cccc(Cl)c2)CC1	-4.1%
COc1cc(/C=C2\C(=O)N(c3ccc(NC(C)=O)cc3)N=C2c2ccccc2)ccc1O	?
CCOc1ccccc1-c1nc(CN2CCC(C(=O)N3CCOCC3)CC2)c(C)o1	-16.0%

3 compounds already listed, sorted by length of the SMILES, rising:
SMILES	VDR inhibitor
Cc1cc2cc(C=O)c(Cl)nc2cc1C	-4.4%
CCOC(=O)CCC(=O)Nc1ccc(S(=O)(=O)N2CCCC2)cc1	-10.8%
CCc1cccc(C)c1NC(=O)COn1nnc2ccc(C(F)(F)F)cc21	-4.2%

Molecules from the list above that have bromine:
SMILES	VDR inhibitor
COc1ccc(Br)cc1CNC(=O)C(C)n1nc(C)n2c(cc3occc32)c1=O (centres undefined)	0.6%
COc1ccc(Br)cc1CN1CCCC(C(=O)N2CCCCC2)C1 (centres undefined)	-15.1%
O=C(COc1ccc(Br)cc1)N/N=C1/SCC(=O)N1Cc1ccccc1	-17.6%
